High-throughput results as filed in PubChem BioAssay.
HIV Env fusion – inhibitors of HIV Env-mediated cell fusion; AID 651610; 360,000 tested, 1.1% active; inhibition, % at 12.3 µM; HeLa-JRFL Env/CEM21 cell fusion, luciferase;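 active = mean replicate inhibition score of at least 50 and every replicate individually at or above 50; inconclusive = only one of the two criteria met; inactive = mean below 50 and not all replicates reaching 50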;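 note: 0% = plate neutral controls and 100% = maraviroc near 300 nM; one replicate is shown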
CSC inhib – blocks cancer stem cells; cancer stem cell-like cells viability, luminescence; inhibition, % at 7.5 µM; 300,000 tested, 1.1% active; AID 2717;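 active = mean at 75% or more and at least half the replicates too; inconclusive = mean and replicates disagree; tested in HMLE shEcad cells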;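 note: 0% = median of negative and 100% = median of positive control wells; the first replicate is given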
PABP polyA inh – blocks human PABP binding to poly(A) RNA | P11940 | fluorescence polarization | inhibition, % at 35 µM | 290,000 tested, 1% active | AID 2014;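 active = 50% or more with normal probe brightness, or confirmed in later tests; inconclusive = above 50% with abnormal brightness, or retests that disagree; inactive = below 50% or failed in later tests; about a fifth of its hits are not listed in these tables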;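 note: calls also rest on retests at 20 µM and on dose response follow-up; controls were probe without protein and protein plus probe with vehicle; some compounds called inactive have numbers as strong as hits; many hits fall short of the cut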
Target sequence (P11940 whole entry, looked up): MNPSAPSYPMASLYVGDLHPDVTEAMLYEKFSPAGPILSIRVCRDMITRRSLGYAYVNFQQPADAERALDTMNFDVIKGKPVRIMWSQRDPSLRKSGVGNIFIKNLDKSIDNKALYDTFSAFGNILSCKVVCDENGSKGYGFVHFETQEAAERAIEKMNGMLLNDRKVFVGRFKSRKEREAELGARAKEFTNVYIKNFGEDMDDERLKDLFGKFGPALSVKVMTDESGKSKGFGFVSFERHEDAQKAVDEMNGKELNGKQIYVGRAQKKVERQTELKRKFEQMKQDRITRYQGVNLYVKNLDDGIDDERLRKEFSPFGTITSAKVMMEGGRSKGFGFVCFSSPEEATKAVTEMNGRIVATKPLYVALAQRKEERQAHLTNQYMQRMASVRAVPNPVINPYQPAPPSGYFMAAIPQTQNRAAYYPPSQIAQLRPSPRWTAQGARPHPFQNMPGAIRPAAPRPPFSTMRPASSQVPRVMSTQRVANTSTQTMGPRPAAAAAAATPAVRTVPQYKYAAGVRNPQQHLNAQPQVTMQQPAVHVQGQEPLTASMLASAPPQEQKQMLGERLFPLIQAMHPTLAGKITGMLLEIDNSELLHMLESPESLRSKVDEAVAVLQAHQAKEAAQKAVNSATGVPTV
Yeast UUG start – alters start codon recognition fidelity in yeast. S. cerevisiae UUG-firefly luciferase reporter, luminescence/redox ratio. activity score, % at 18.7 µM. 350,000 tested, 0.13% active. AID 602363;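 active = replicate mean at a twofold rise or more, about +100% in these data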;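 note: firefly luciferase made from a UUG start codon reports start codon fidelity; reporter light over untreated wells divided by growth signal over untreated wells; some hits fall short of that in this replicate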
eIF4H inh – inhibitors of RNA binding by human eIF4H. Q15056. AID 2012. inhibition, % at 35 µM. eIF4H fluorescence polarization binding assay. 290,000 tested, 0.94% active;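 active = 50% or more with normal probe brightness, or confirmed in later tests; inconclusive = above 50% with abnormal brightness, or retests that disagree; inactive = below 50% or failed in later tests; about a fifth of its hits are not listed in these tables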;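 note: calls also rest on retests at 20 µM and on dose response follow-up; 0% = protein and probe with vehicle and 100% = probe without protein; strong numbers were not always called active; many hits fall short of the cut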
Rce1 inh – inhibitors of yeast Ras-converting enzyme; Q03530; yeast membranes, quenched prenylated peptide cleavage fluorescence; calls only; 290,000 tested, 0.27% active;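 active = fall in fluorescence gain of 50% or more versus controls, with final raw signal at or below 3038400; inconclusive = same 50% fall but final raw signal above 3038400; inactive = fall in fluorescence gain under 50%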;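 note: plate controls were neutral control wells for no effect and wells lacking membranes for full effect; tested at 10 µM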
MT1-MMP act inh – inhibitors of human MT1-MMP activation | 360,000 tested, 0.061% active | GFP/RFP ratio change, % at 20 µM | HT1080 RFP-PRO-GFP cells, GFP/RFP ratio fluorescence, overnight; percent of plate control window, DMSO zero | P50281;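 active = GFP/RFP ratio change of at least 30% with cell ATP level not reduced by more than half and red fluorescence within 50% of control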; note: strong numbers were not always called active
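Assay system – RFP-PRO-GFP reporter HT1080 cells · Compound dosing – single dose of 20 µM compound, 1% DMSO final · Incubation – overnight compound exposure at 37 °C · Measure – GFP/RFP fluorescence ratio · Benchmarks – DMSO wells and RFP-L50D-GFP cells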
eIF4H inh retest – recorded beside eIF4H inh, whose call it bears; inhibition, %; compound at 20 µM; confirmation average;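 mean of two retest wells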
PABP polyA inh retest – second read-out of PABP polyA inh, no call of its own (marks repeat the call); inhibition, %; compound at 20 µM; confirmation repeats;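 mean of two retest wells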
MT1-MMP act inh RFP – further read-out of MT1-MMP act inh, marked with its call; RFP signal change, %; measured here: RFP expression control read;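 0 = vehicle wells; hits needed this value within 50% of zero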
* hit, by the source's call; i = inactive; ? = inconclusive; . = no result given.

SMILES	HIV Env fusion	CSC inhib	PABP polyA inh	Yeast UUG start	eIF4H inh	Rce1 inh	MT1-MMP act inh	MT1-MMP act inh RFP	others
COc1ccc(CC(=O)N(C)Cc2ccc(C(C)(C)C)cc2)cc1S(=O)(=O)N1CCOCC1	18	-3	11	-3	13	i	0	-9
CC(=O)N1c2ccc(S(=O)(=O)NCc3ccco3)cc2CC1C (stereo not given)	-4	7	4	-14	1	i	6	2
COc1cc(C(=O)Nc2ccc3c(c2)Cc2ccccc2-3)cc(OC)c1OC	-292	25	-6	.	-2	i	-2	-7
CC(NC(=O)NC1CCCCC1)C(c1cccs1)N1CCN(C)CC1 (stereo not given)	2	-9	6	-6	-14	i	-5	2
Cc1c(C(=O)NCc2ccccc2)oc2ccc(S(=O)(=O)N3CCCC3)cc12	12	8	-2	-13	-3	i	-3	-8
CCc1cc2c(SCC(=O)c3ccccc3)ncnc2s1	.	1	-1	-14	2	i	-5	-3
CCn1c(SCC(=O)NCC2CCCO2)nc2c(c1=O)SCC2 (stereo not given)	6	.	2	-10	5	i	3	5
CC(C)(C)CC(=O)Nc1ccccc1N1CCN(c2ccccc2)CC1	21	5	13	.	6	i	-9	-8
CCC(C)(C)NC(=O)c1cc(C(=O)OC)cc([N+](=O)[O-])c1	-47	-6	1	-8	-7	i	4	4
Cc1cc(SCC#N)nc2ccccc12	-19	-7	0	-18	-4	i	4	2
COc1ccc(Cl)cc1NC(=O)CSc1cccc[n+]1[O-]	-5	-15	.	-1	.	.	4	0
COc1ccc(NC(=O)Cn2nc(C(=O)O)c3ccccc3c2=O)cc1S(=O)(=O)N1CCCCC1	15	-17	.	-12	.	.	3	-2
CC1CCN(c2nnc(NC(=O)Cn3c(=O)oc4ccccc43)s2)CC1	-19	6	-1	-7	-10	i	2	3
NC(=S)N/N=C/c1ccccc1OC(=O)c1cc2ccccc2oc1=O	0	-16	-7	-23	-8	i	1	1
O=C(C(=O)N1CCc2ccccc2C1)c1cn(CC(=O)N2CCCC2)c2ccccc12	21	.	41	.	3	i	-3	0
Cc1ccc(SCCC(=O)NCCSCc2ccccc2C)cc1	.	1	3	.	-6	i	-1	-5
COc1ccc(-c2cc3ccc(OCC(N)=O)cc3oc2=O)cc1OC	0	-6	5	-18	-14	i	5	1
Cc1ccc2nc(C)cc(OCC(=O)O)c2c1	-3	.	24	-8	11	i	0	3
COc1ccc(/C=N/NC(=O)C2C(C=C(Cl)Cl)C2(C)C)c(OC)c1 (stereo not given)	2	-10	7	.	0	i	12	1
CC(=O)Nc1ccc(CN2CCc3c([nH]c4ccccc34)C2c2ccccn2)cc1 (stereo not given)	9	2	1	.	-12	i	-3	1
CCn1cc(S(=O)(=O)CC(=O)Nc2cccc(C)c2)c2ccccc21	1	-14	15	2	-10	i	4	-2
COc1ccc(-c2ccc(CNCCCN3CCOCC3)o2)cc1Cl	8	11	18	-21	-3	i	3	4
CCC(C)(C)NC(=O)c1ccc(Br)o1	27	-3	4	.	-4	i	3	5
COc1ccc(CCN2CC(C(=O)NCc3cnn(C(C)C)c3)CCC2=O)cc1 (stereo not given)	.	-3	4	-21	55	i	0	0	eIF4H inh retest=6;PABP polyA inh retest=14
CC(NC(=O)CCNC(=O)c1ccc(Br)cc1)c1ccc(S(N)(=O)=O)cc1 (stereo not given)	4	-7	.	-5	.	i	1	2
O=C(CCNS(=O)(=O)c1ccccc1)OCc1ccc([N+](=O)[O-])cc1	-10	.	.	-7	.	.	0	3
COc1ccc(NC2CCCN(C(=O)c3ccc4[nH]c(C)c(C)c4c3)C2)cc1OC (stereo not given)	-17	15	18	.	8	i	3	3
CCSC1=NCCN1S(=O)(=O)c1ccc(F)cc1	-4	2	-1	.	4	i	2	3
COC(=O)c1ccccc1S(=O)(=O)N1CCC(C(=O)OCC(=O)c2ccccc2OC)CC1	-13	-7	.	-12	.	i	1	-1
Nc1nc2sc3c(c2cc1C(=O)N1CCOCC1)CCCC3	.	.	25	-20	-1	i	4	4
O=C(CN1CCC(c2nc3ccccc3s2)CC1)N1CCCCC1	1	0	1	-11	-6	i	2	0
O=C(O)C1CCCN1c1ncnc2c1oc1ccccc12 (stereo not given)	-77	5	-2	-6	-1	i	18	7
COc1ccc(-c2csc(Nc3cc(C)ccn3)n2)cc1OC	-44	17	-1	-11	-17	i	-2	-21
COC(=O)c1c(-n2c(C)cc(C=O)c2C)sc2c1CCCC2	.	-3	-5	-12	7	i	-1	-8
Cc1cccc(NC2(C(F)(F)F)N=C(c3ccccc3)NC2=O)n1 (stereo not given)	.	-11	-6	-13	-1	i	-1	0
Cn1c(=O)c2c(ncn2CC(O)CNc2cccc(Cl)c2)n(C)c1=O (stereo not given)	-13	0	4	.	1	i	0	-9
COc1cc(S(=O)(=O)N2CCOCC2)ccc1NC(=O)COC(=O)/C=C/c1cc(OC)c(OC)c(OC)c1	?	6	.	.	.	.	2	-1
CCn1ccnc1CN(C)Cc1cn(-c2ccc(C)cc2)nc1-c1ccc(F)cc1	-4	-4	-4	6	-1	i	-3	-3
COc1ccc(-c2cc(C(=O)N3CCOCC3)c3ccccc3n2)cc1OC	.	-8	.	-15	.	i	4	2
O=C(NNC(=O)c1ccc(Cl)c(Cl)c1)c1ccncc1	-8	-16	.	-13	.	i	2	4
O=C(CCN1C(=O)/C(=C\C=C\c2ccccc2)SC1=S)Nc1ccccc1C(=O)O	-30	2	47	-15	20	i	5	4
CC1(C)Cc2cccc(OCC(=O)NCCc3ccccc3)c2O1	-9	-12	.	0	.	i	-2	-1
Cn1c(=O)cc(OCCCC(=O)N2CCN(c3ccccc3)CC2)c2ccccc21	-74	-18	-1	-11	-7	i	-5	6
O=[N+]([O-])c1cc(-c2n(-c3ccccn3)c3ccccc3[n+]2-c2ccccn2)ccc1Cl	64*	-10	0	-7	4	i	0	-2
Cc1cc2c(c(=O)n1Cc1cccnc1)C(Cc1ccccc1)C(C#N)=C(N)O2 (stereo not given)	.	-15	9	.	12	i	-2	-1
CC(=O)Nc1ccc2nc(NC(=O)COc3ccc([N+](=O)[O-])cc3)sc2c1	0	-5	-9	.	3	i	-2	-1
O=C(CC(c1ccco1)S(=O)(=O)c1ccccc1)c1ccc(F)cc1 (stereo not given)	-75	-14	4	17	-10	i	0	0
NS(=O)(=O)c1ccc2nc(NC(=O)c3ccc4c(c3)OCCO4)sc2c1	-26	1	7	-13	-4	i	2	0
CCOC(=O)N1CCN(C(=O)CSc2nnc(-c3cc(OC)cc(OC)c3)o2)CC1	.	-4	17	-8	5	i	2	0
COc1ccc(CCC(=O)Nc2cc(Cl)ccc2N2CCN(C)CC2)cc1	.	-5	-20	.	-14	.	.	.
CC(=O)CC(=O)Nc1cccc2c1CCCC2	.	-5	1	-9	9	i	8	1
O=C(Nc1ccc(NC(=O)c2ccco2)c(Cl)c1)c1ccc2c(c1)OCCO2	-56	.	7	-9	20	i	-3	-4
COc1cc2[nH]c(C(=O)NCCc3ccccc3)cc2c(OC)c1OC	13	-7	2	-9	0	i	6	4
Cc1cc(=O)oc(C)c1C(=O)Nc1ccc(N(C)C)cc1	5	-12	-8	.	-14	i	0	1
COC(=O)CCCC1=CC2=C(c3ccccc3)C(=O)C(C)(OC(=O)C3CCCC3)C(=O)C2=CN1CCN1CCOCC1 (stereo not given)	11	-6	16	3	14	i	5	5
CC1C(=O)N2CCCc3cc(NC(=O)C(=O)NCCN4CCOCC4)cc1c32 (stereo not given)	-4	-3	.	-1	.	i	5	4
CCCNC(=O)C1CCCN(S(=O)(=O)c2ccc3c(c2)CC(C)N3C(=O)C2CC2)C1 (stereo not given)	-14	8	-18	-19	0	i	-3	0
OCC(O)C(O)C(O)C(O)c1nc2ccccc2[nH]1 (stereo not given)	9	-20	5	.	2	i	-2	4
CCOC(=O)c1cc(-c2ccccc2)sc1NC(=O)CSc1nnc(N)s1	-52	7	-14	.	4	i	-1	-7
C=C(C)Cn1c(=O)c2c(nc3n2CC(C)CN3Cc2ccccc2)n(C)c1=O (stereo not given)	24	12	-7	5	-3	i	-4	1

Further entries
SMILES	HIV Env fusion	CSC inhib	PABP polyA inh	Yeast UUG start	eIF4H inh	Rce1 inh	MT1-MMP act inh	MT1-MMP act inh RFP	others
CC(=O)N1c2ccc(S(=O)(=O)N(C)CC(=O)NCc3ccc(C)cc3)cc2CC1C (stereo not given)	4	3	.	3	.	i	-2	1
CN1CCN(S(=O)(=O)c2ccc(Cc3ccc(S(=O)(=O)N4CCN(C)CC4)cc3)cc2)CC1	.	69	-1	.	26	i	3	-5
CCCn1c(NCc2cc(OC)ccc2OC)nc2ccccc21	-41	-14	-7	-10	-6	i	2	-4
CCOc1ccc(C(=O)Nc2c3c(nn2-c2ccc(F)cc2)CS(=O)C3)cc1 (stereo not given)	.	-10	-3	-7	5	i	-2	1
COc1cccc(CN2CC(C(=O)N(C)Cc3nc(C)cs3)CCC2=O)c1 (stereo not given)	-6	.	-1	-15	2	i	0	2
COc1ccc(C2Nc3ccccc3C(=O)N2NS(=O)(=O)c2ccc(C)cc2)cc1OC (stereo not given)	1	10	7	-6	5	i	-2	1
Cc1cc(C)n2nc(N)c(N=Nc3ccc4c(c3)OCO4)c2n1	-18	-5	6	-10	78	i	14	7	eIF4H inh retest=0;PABP polyA inh retest=12
COc1ccccc1NC(=O)N1CCN(CCc2ccccc2)CC1	-2	-4	9	.	0	i	-1	-3
CCN1C(C(=O)Nc2cc(C)on2)=C(O)c2ccccc2S1(=O)=O	15	2	-2	-13	-1	i	3	5
CN1C(=O)C(O)(CC(=O)c2ccccc2O)c2cc(Br)ccc21 (stereo not given)	-3	13	4	-13	-9	i	2	15
O=C(NC1(C(F)(F)F)OCCO1)c1ccc(F)cc1	-3	-11	4	.	-6	i	-4	-2
O=C(Oc1cccc2c(OC(=O)N3CCCC3)cccc12)N1CCCC1	.	58	0	14	-6	i	5	4
CCc1nc2ccc(C(=O)NCCc3ccco3)cc2nc1CC	.	-7	-3	6	-4	i	3	0
C=CCNC(=O)c1ccc(N(C)S(=O)(=O)c2ccc(OC)cc2)cc1	-2	.	2	-14	-6	i	1	-2
CC(=O)Oc1ccc(C(=O)Nc2cccc(C(=O)Nc3ccccc3C(=O)O)c2)cc1	9	-2	11	-13	-4	i	0	2
COc1ccc(OC)c(S(=O)(=O)NCc2cn3cccc(C)c3n2)c1	-22	-5	0	-16	3	i	-5	0
CS(=O)(=O)N(CC(=O)NCc1ccc2c(c1)OCO2)c1cccc(Cl)c1	-18	6	3	-2	-7	i	2	1
C=C1C(=O)[C@]23C[C@H]1CCC2[C@@]1(C)C(C[C@@H]3O)[C@](C)(C(=O)OC)CC[C@@H]1O (stereo not given in full)	22	.	.	0	.	.	-2	-21
